# VDR inhibitor – Inhibitors of the vitamin D receptor (VDR): qHTS. hit rate 0.93% among 400,000. Potency, µM, inactives show max response, negative = inhibition, usual class: inhibitors. VDR-SRC2-3 peptide fluorescence polarization, 2 h; active = well fitted inhibition curve with a large enough effect; inconclusive = small, poorly fitted or top-dose-only effect, or another doubt; inactive = no such curve, though single readings can be large or run the other way; also: series mostly up to about 120 µM
# Target sequence (P11473 whole entry, looked up): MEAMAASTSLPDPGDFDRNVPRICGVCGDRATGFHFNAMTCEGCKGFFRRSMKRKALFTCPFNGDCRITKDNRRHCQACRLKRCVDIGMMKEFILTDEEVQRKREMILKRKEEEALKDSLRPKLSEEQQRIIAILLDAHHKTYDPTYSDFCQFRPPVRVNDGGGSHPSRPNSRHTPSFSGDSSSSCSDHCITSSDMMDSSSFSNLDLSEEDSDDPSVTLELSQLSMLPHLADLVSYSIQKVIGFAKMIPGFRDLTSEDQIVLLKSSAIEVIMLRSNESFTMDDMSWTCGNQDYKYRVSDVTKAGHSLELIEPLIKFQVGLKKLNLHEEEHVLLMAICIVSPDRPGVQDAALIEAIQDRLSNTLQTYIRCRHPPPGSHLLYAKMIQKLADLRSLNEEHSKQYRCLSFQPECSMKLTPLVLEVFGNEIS
#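 Reagent solutions, kept cold and dark, are dispensed first; compounds are then pinned in at 23 nl, plates briefly spun, and incubated 2 h at ambient temperature. Inhibition of VDR–SRC2-3 peptide binding is read by fluorescence polarization.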
# The depositor's hits bear a star; ? = inconclusive; & = joins results of further samples; [ ] = dose if it differs, or a comment. % is scaled to controls: 0 for no effect and ±100 for the full control effect; potency is read from the fitted curve at half-maximal effect. A portion of the library, so the mix of outcomes need not match the whole.
# Start of the listing, in advance, six compounds:
SMILES,VDR inhibitor
Nn1c(SCC(=O)Nc2ccc3c(c2)OCCO3)nnc1C(F)(F)F,18%
O=C(CN1CCCCC1)Nc1ccc(S(=O)(=O)N2CCCCCC2)cc1,-6%
COc1ccc(NC2=CC(c3ccc(OC)c(OC)c3)N(c3ccc(OC)cc3)C2=O)cc1 (centres undefined),-23%
COC(=O)CCc1c[nH]c2ccc([N+](=O)[O-])cc12,-1%
S=C(Nc1cc(Cl)ccc1Oc1ccccc1)N1CCN(c2ccccn2)CC1,-1%
O=C1/C(=C/c2ccccn2)SC(=S)N1N1CCOCC1,-16%

# This part in full, from the first entry:
SMILES,VDR inhibitor
Nn1c(SCC(=O)Nc2ccc3c(c2)OCCO3)nnc1C(F)(F)F,18%
O=C(CN1CCCCC1)Nc1ccc(S(=O)(=O)N2CCCCCC2)cc1,-6%
COc1ccc(NC2=CC(c3ccc(OC)c(OC)c3)N(c3ccc(OC)cc3)C2=O)cc1 (centres undefined),-23%
COC(=O)CCc1c[nH]c2ccc([N+](=O)[O-])cc12,-1%
S=C(Nc1cc(Cl)ccc1Oc1ccccc1)N1CCN(c2ccccn2)CC1,-1%
O=C1/C(=C/c2ccccn2)SC(=S)N1N1CCOCC1,-16%
COc1cccc(C(=O)Nc2nnc(-c3ccc(Cl)cc3)o2)c1,-13%
CCCNC(=O)Nc1cc(OC)c(OC)cc1Cc1nccc2cc(OC)c(OC)cc12,-8%
Cc1cc(=O)n2[nH]c(=O)c(N=Nc3ccccc3)c2[nH]1,7%
O=C(C[C@H]1C/C=C\C[C@H](NC(=O)OCC2c3ccccc3-c3ccccc32)C(=O)OC[C@@H]2CCCN2C1=O)NCCO,-21%
CCOC(=O)Cn1c(=O)oc2cc(S(=O)(=O)N(CCN(C)C)Cc3ccccc3)ccc21,-3%
Fc1ccc(-c2csc(NC(=S)Nc3ccccc3)n2)cc1,-12%
CC(C)NC(=O)NC(=O)COC(=O)/C=C/c1ccc2c(c1)OCO2,-10%
c1ccc(COc2ccc(OCCN3CCCC3)cc2)cc1,1%
Cc1ccc2occ(CC(=O)Nc3ccc(Cl)c(C(F)(F)F)c3)c2c1,-12%
COc1ccc(CNc2ncnc3ccc(-c4cccc(C#N)c4)cc23)c(OC)c1,3%
Cc1ccc(S(=O)(=O)NCC2CCC(C(=O)N3CCOCC3)CC2)cc1 (centres undefined),-11%
Cc1cc([N+](=O)[O-])ccc1NC(=O)CSc1nnc(C)n1C,18%
COC(CNC(=O)C(=O)NCC1OCCN1S(=O)(=O)c1ccccc1)OC (centres undefined),-7%
CN(CC(=O)N1CCN(c2ccccn2)CC1)S(=O)(=O)c1cccc2nsnc12,10%
Cc1ccc(N(CC(=O)NCC2CCCO2)C(=O)CCC(=O)Nc2ccccn2)cc1 (centres undefined),-5%
CCCCC(=O)Nc1ccccc1C#N,-22%
COc1ccc(C(=O)N(c2ccccn2)C2CCCCC2)c(OC)c1,-5%
COc1ccccc1N1CCN(C(=O)c2cc(C)on2)CC1,-1%
Cc1cc(C)c(S(=O)(=O)NCCCn2ccnc2)c(C)c1,-11%
CCOC(=O)CSc1nc2sc3c(c2c(=O)[nH]1)CC(C)(C)OC3,19%
COc1ccc(Cl)cc1NC(=O)c1noc2c1CCc1ccccc1-2,-11%
C#CCOCCOCCOCCNc1nc(N2CCN(C(=O)[C@H](CCCCN)n3cc([C@@H](N)[C@H](C)CC)nn3)CC2)nc(N2CCN(C(=O)[C@H](CCC(=O)O)n3cc([C@@H](N)CCSC)nn3)CC2)n1,-1%
Cc1ccc(S(=O)(=O)N2CCOCC2)c(C)c1NS(C)(=O)=O,0%
O=C(N/N=C/C=C\c1ccco1)c1cccs1,-9%
CN(c1ccccc1C(=O)N1CCN(c2ccccc2)CC1)S(C)(=O)=O,11%
O=C(NCc1n[nH]c(=S)n1-c1cccc(C(F)(F)F)c1)c1ccco1,2%
O=C(OCc1ccccc1F)c1cc2ccccc2cc1O,-4%
CCCS(=O)(=O)N1CCn2c(nc3ccccc32)C1,-2%
CCN(CC)c1ccc(Nc2nc(N3CCOCC3)c3ccccc3n2)cc1,-8%
O=C(O)CN1C(=O)C2(OCCO2)c2cc(Br)ccc21,-13%
O=c1[nH]c2cc3c(cc2cc1CN(Cc1ccco1)C(=S)NCCCN1CCOCC1)OCCO3,-3%
CN(C)c1ccc(NC(=O)c2ccc3nc[nH]c3c2)cc1,5%
Cc1cc(C)cc(OCC(=O)NNC(=O)C2CCCO2)c1 (centres undefined),-6%
NC(=O)C1CCN(C(=O)COc2ccc3c(c2)oc(=O)c2ccccc23)CC1,-12%

# Shown bar-delimited: entries from further up.
SMILES | VDR inhibitor
CCCS(=O)(=O)N1CCn2c(nc3ccccc32)C1 | -2%
CCN(CC)c1ccc(Nc2nc(N3CCOCC3)c3ccccc3n2)cc1 | -8%
O=c1[nH]c2cc3c(cc2cc1CN(Cc1ccco1)C(=S)NCCCN1CCOCC1)OCCO3 | -3%
CN(C)c1ccc(NC(=O)c2ccc3nc[nH]c3c2)cc1 | 5%

# Next part.
SMILES,VDR inhibitor
Cc1ccc(-c2cc3c(n2-c2ccc(C)cc2)CC(C)(C)CC3=O)cc1,6%
N#Cc1ccc(-c2ccccc2)nc1SCC(=O)c1cc2ccccc2oc1=O,-1%
CCOc1ccc(NC(=S)N(CCOC)C(C)c2ccco2)cc1 (centres undefined),-14%
CCCCOc1ccc(C(=O)Nc2ccc(N3CCN(C(C)=O)CC3)cc2)cc1,-11%
CCC(CC)c1nnc(NC(=O)c2cc([N+](=O)[O-])ccc2N2CCCCC2)s1,-9%
COc1ccccc1-n1cnnc1SCC(=O)NCc1cccs1,-3%
COc1ccc(CC(=O)Nc2ccc3nc(N4CCCCC4)cc(C)c3c2)cc1,7%
Cc1cc(C(=O)OCC(=O)Nc2cc(S(=O)(=O)N(C)C)ccc2C)c2ccccc2n1,14%
O=C1NC(=S)NC1=Cc1ccc2c(c1)CCC2,-20%
O=C(NCCN1CCCCC1)c1ccco1,8%

# Another view of 5 compounds above.
structure | VDR inhibitor
CN(CC(=O)N1CCN(c2ccccn2)CC1)S(=O)(=O)c1cccc2nsnc12 | 10%
Cc1ccc(N(CC(=O)NCC2CCCO2)C(=O)CCC(=O)Nc2ccccn2)cc1 (centres undefined) | -5%
CCCCC(=O)Nc1ccccc1C#N | -22%
COc1ccc(C(=O)N(c2ccccn2)C2CCCCC2)c(OC)c1 | -5%
COc1ccccc1N1CCN(C(=O)c2cc(C)on2)CC1 | -1%

# (listing goes on)
SMILES,VDR inhibitor
CSc1ccccc1NC(=O)C1CC(c2ccccc2O)=NO1 (centres undefined),-21%
COc1ccc(NC(=O)CN2CCN(S(=O)(=O)c3ccc(F)cc3)CC2)cc1Cl,1%
O=C(Nc1nc2ccccc2[nH]1)c1ccc(F)cc1,-10%
CCCc1sc(N2CCCC(C(N)=O)C2)nc1-c1ccccc1 (centres undefined),79µM*
Cc1ccc(NC(=O)C(Cc2ccccc2)N2Cc3ccccc3C2=O)cc1Cl (centres undefined),8%
COc1cccc(/C(O)=C2/C(=O)C(=O)N(Cc3ccco3)C2c2ccncc2)c1 (centres undefined),-10%
Cc1cccc(NC(=O)c2cc(-c3ccccn3)nc3ccccc23)c1C,0%
CCCCn1c(N)c(N(CC(C)C)C(=O)C2CCC2)c(=O)[nH]c1=O,-8%
Cc1cccc(C(=O)N[C@H](C(=O)NCCc2ccc(Cl)cc2)C(C)C)c1,-10%
COc1ccccc1CNC(=O)COC(=O)/C=C/c1ccc(OC(F)F)c(OC)c1,4%
COc1ccc(CCNC(=O)CCc2c(C)c3cc4c(C)c(C)oc4cc3oc2=O)cc1,4%
CN(C)Cc1ccccc1-c1nc(N(C)Cc2ccco2)c2ccccc2n1,?
CN(C)S(=O)(=O)c1ccc(C(=O)OCn2nnc3ccccc3c2=O)cc1,-13%
Cc1ccc(C)n1CCN1CCN(C(=O)CC#N)CC1,-16%
O=C(c1ccccc1)N1CCN(CC(O)COc2ccc(Br)cc2)CC1 (centres undefined),-1%
CCCCCCCCC#CCC#CCC#CCCCC(=O)O,-24%
Cc1ccc(S(=O)(=O)N(C)c2ccc(C(=O)NCc3ccccc3F)cc2)cc1,20%
CSc1ccc(/C=C(\NC(=O)c2ccc(C)cc2)C(=O)NN)cc1,-17%
Cc1ccc[n+](CC(=O)Nc2nc3ccccc3s2)c1,-17%
Cc1c(C(=O)OC2CCCC2)[nH]c2c1C(=O)CC(c1ccco1)C2 (centres undefined),8%
COc1cc(CC(=O)OCC(=O)Nc2cccc([N+](=O)[O-])c2)cc(OC)c1OC,5%
Cn1c(Cc2cccs2)nnc1SCC(=O)Nc1ccc(F)cc1F,3%
CN(Cc1cnn(C)c1)C(=O)C1CCC(=O)N(Cc2ccc(Cl)cc2)C1 (centres undefined),1%
Cc1ccc(C(=O)Cn2c(C)cc(C)c(C#N)c2=O)cc1,6%
COc1ccc(OC)c(C(C(=O)NC2CCCCC2)N(C(=O)c2ccccn2)c2cccnc2)c1 (centres undefined),-12%
CN(C)c1ccc(/C=C(\NC(=O)c2ccccc2)C(=O)N/N=C/c2ccc(C(=O)O)cc2)cc1,-22%
O=C(Nc1ccc(N2CCCC2)cc1)C(Cl)c1ccccc1 (centres undefined),45µM*
Cn1c(CO)cnc1S(=O)(=O)Cc1ccc([N+](=O)[O-])cc1,-14%
C=CCNC(=O)COc1ccc(S(=O)(=O)NC2CCCCC2)cc1,8%
CCCCOC(=O)c1ccc(NC(=S)NC(=O)c2c(Br)c(C)nn2C)cc1,-15%
Cc1ccc(CN2CC(=O)N3[C@H]4c5cc(Cl)ccc5OC[C@@H]4[C@H](c4ccccc4)[C@]3(C)C2=O)cc1,4%
COc1ccc(NS(=O)(=O)c2cc(NC(=O)C3=NN(c4ccccc4)C(=O)CC3)ccc2OC)cc1,11%
CCOc1ccc(C(=O)Nc2ccc(NC(=O)c3ccccc3)c(C)c2)cc1[N+](=O)[O-],-1%
COc1ccc2nc(N(Cc3cccnc3)C(=O)c3ccco3)sc2c1,3%
COc1cc(O)c(C(CC(=O)N2CCCC(C)C2)c2cc(OC)c(OC)c(OC)c2)c(OC)c1 (centres undefined),-14%&-6%
COc1cc(OC)c(OC)cc1/C=N/NC(=S)NCC1CCCO1 (centres undefined),14%
CCc1cccc(NC(=O)CN(C)C2=NS(=O)(=O)c3ccccc32)c1,4%
CCn1c(SCC(=O)Nc2cc(NC(C)=O)ccc2OC)nnc1-c1cccnc1,14%
Cc1ccc(-n2ncc3c(SCc4ccccc4)ncnc32)cc1,-2%
Cc1ccc(-c2c(NCCc3ccccc3)c(=O)c2=O)cc1,-4%
O=[N+]([O-])c1ccc(N2CCN(C(=S)c3cccc([N+](=O)[O-])c3)CC2)cc1,?
Cc1cccc(NC(c2cccc(F)c2)c2ccc3ccc(C)nc3c2O)n1 (centres undefined),7%
O=C(Nc1ncn[nH]1)c1ccc([N+](=O)[O-])cc1[N+](=O)[O-],3%
Cc1ccccc1OCC(=O)Nc1ccc2nc(SCC(=O)N3CCOCC3)sc2c1,-10%
CNc1nc(-c2ccccc2)nc(-c2ccccc2)c1C#N,-7%
Nc1ccc(OCCCc2c(N)nc(N)nc2N)cc1,4%
Cc1ccc(NC(=O)c2cc(=O)[nH]c3ccc(S(=O)(=O)N4CCOCC4)cc23)cc1,-1%
COc1ccc(N2CC(NC(=O)C3CCCC3)CC2=O)cc1 (centres undefined),4%
COc1ccccc1C(NC(=O)C1CCCCC1)c1c(O)ccc2ccccc12 (centres undefined),1%
O=C(Oc1ccc(Cl)cc1N1C(=O)CCC1=O)c1ccco1,9%
# Later entries:
SMILES,VDR inhibitor
CCCCSc1nnc(C)c(=O)[nH]1,-29%
Nc1cc(=O)[nH]c(SCCSc2cc(Cl)ccc2Cl)n1,12%
CN(Cc1ccccc1)C1CCNCC1,13%
O=C(CN1CCN(C(=O)C2CCC2)CC1)Nc1ccc(F)cc1,21%
O=C(CSc1nc2ccccc2c(=O)n1NC(=O)Cc1ccccc1)NCc1ccccc1Cl,22%
COc1ccc(S(=O)(=O)N2CCN(C(=O)c3cccc(Cl)c3)CC2)cc1,-3%
C=C[C@H](N)CCC(=O)O,10%
CCCCCCCCCCCCC[N+](C)(C)Cc1ccccc1,75%[activator]
COc1ccc(C(=O)Cn2c3ccccc3n3nc(CCC(=O)O)c(=O)nc23)cc1OC,4%
Cc1cccc(C(=O)Nc2cc(S(=O)(=O)N3CCOCC3)ccc2N2CCCC2)c1,3%
Cc1cc(C)cc(C(=O)NCC(=O)NCCc2c[nH]c3ccccc23)c1,2%
O=C(Nc1cccc(S(=O)(=O)N2CCOCC2)c1)c1cccc(S(=O)(=O)N2CCCCC2)c1,-16%
CN(C)c1ccc(P(=O)(OCc2ccccc2)C(O)c2ccc(Br)cc2)cc1 (centres undefined),6%
CCc1ccc2c(c1)cc(CN(C(=S)Nc1ccccc1Cl)C1CC1)c1nnnn12,8%
C/C(=N\NC(=O)CCn1nc(C)cc1C)C(C)(C)C,-22%
N#Cc1cccc(-c2nc(NCc3cccnc3)c3ccccc3n2)c1,-9%
CCOc1c(OC)cccc1C1CC(=O)Nc2cc(OC)c(OC)cc21 (centres undefined),3%
Cc1ccc2nc(N(Cc3cccnc3)C(=O)c3ccco3)sc2c1,4%
Nc1nonc1-n1nnc(C(=O)N/N=C/c2cccc(F)c2)c1CN1CCCCCC1,-18%
O=C(NCCc1ccccc1)C1CCCN1S(=O)(=O)c1cccc2nsnc12 (centres undefined),21%
Cc1ccnc(SCC(=O)N2CCN(C(c3ccccc3)c3ccccc3)CC2)n1,-12%
CCOC(=O)C[C@H]1c2ccc(C(F)(F)F)cc2S(=O)(=O)N1C1CCCC1,0%
COc1ccc2c(c1)CC(C(=O)NCc1ccc(F)cc1)CO2 (centres undefined),-9%
COc1cc(C(=O)O)cc(NC(=O)c2ccco2)c1OC,3%
Cc1nnc(NC(=O)CSc2nnc(-c3ccoc3C)n2CC(C)C)s1,?
O=C1N=C(N2CCN(c3ccccc3)CC2)S/C1=C\c1ccco1,-12%
COc1ccc(N=Cc2ccc[nH]2)cc1,17%

# From PubChem
